Source: PubChem (several laboratories)
Bfl-1 A1 inh: caspase 3/7 activation in MEF A1-2A-BIM cells, primary screen, A1 inhibitor project, cell-based, luminescence, HTS. Caspase-Glo 3/7 luminescence, 3 h; percent of clofoctol response, vehicle zero. hit rate 0.066% among 330,000. caspase activation, % (test concentration not listed). AID 2462, 2010;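 active = over half of replicate activation scores above 10%, or exactly half above 10 with the replicate mean above 10; inconclusive = replicate mean below 10 yet half the replicates above 10; inactive = over half of replicates below 10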;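 note: wells of about 30 µL received 50 nL stock; many hits fall short of the cut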
RanGTP-Impb inh: inhibitors of RanGTP-importin-beta interaction, primary screen, biochemical, FRET, CFP-Ran, YFP-importin-beta, homogeneous; Ran GTPase (GTP-bound) - importin-beta complex; cell-free CFP-Ran/YFP-importin-beta FRET ratio; inhibition, % (no concentration beside the values); hit rate 1.1% among 300,000;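 active = most replicates above 15%; inconclusive = exactly half above 15%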;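 note: 0% = DMSO wells and 100% = Ran loaded with GDP instead of GTP; wells of about 40 µL received 100 nL stock; the first replicate is given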
Vif TR-FRET: inhibitors of Vif binding to APOBEC3G peptide, primary screen, biochemical, TR-FRET, GST-Vif 1-94, biotin-A3G peptide, dose response retest (AID 1117319). Virion infectivity factor (Human immunodeficiency virus type 1 group M subtype B (isolate …. TR-FRET GST-Vif / biotin-A3G peptide binding; higher % means a stronger effect; test concentration not given here; strong numbers were not always called active. one-dose inhibition, %; IC50 in µM for titrated hits. hit rate 0.57% among 260,000;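 active = above the screen mean plus three standard deviations and confirmed in dose response; inconclusive = results disagree or hit not tested in dose response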;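 note: Vif residues 1-94 fused to GST binding biotinylated APOBEC3G peptide 110-148; 0% = full assay without inhibitor and 100% = GST in place of GST-Vif; retest series ran down from 100 µM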
Calb FLC: C. albicans growth inhibition with fluconazole, primary screen, CaCi-2 strain, Alamar Blue fluorescence. C. albicans CaCi-2 (fluconazole-resistant clinical isolate) + fluconazole, 48 h. growth inhibition, % (no concentration beside the values). hit rate 0.57% among 300,000;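 active = most replicates above 75%; inconclusive = exactly half above 75%; inactive = most below 75%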;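 note: all wells also contain fluconazole at 8 µg/ml as a sub-toxic cotreatment; 0% = median of DMSO wells and 100% = median of geldanamycin control wells; wells of about 8 µL received 7.5 nL stock; the first replicate is given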
MLL AF4-AF9 inh: inhibitors of AF4 peptide binding to AF9, primary screen, biochemical, AlphaScreen, biotin-AF4 peptide, FLAG-AF9, single point. Protein AF-9 (Homo sapiens), P42568. inhibition, % at 10 µM. hit rate 0.47% among 350,000. AID 651704, 2012;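 active = every replicate reaching a set inhibition limit, whatever the replicate mean, cut at about 25% in these data; inconclusive = mean inhibition reaches that limit but some replicates miss it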;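 note: 0% = plate neutral control median and 100% = total signal loss; the record names both 10 and 1 µM as test concentration; the first replicate is given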
T cruzi inh: inhibitors of intracellular T. cruzi growth, primary screen, luminescence, NIH3T3 host cells | T. cruzi beta-gal in NIH3T3, 90 h | inhibition, % (test concentration not listed) | hit rate 1.4% among 300,000 | AID 1885, 2009;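 active = mean inhibition across valid replicates above about 55%, limit read from the data; inconclusive = mean below that limit but half or more replicates reach it; inactive = mean below it, under half of replicates reach it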;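 note: signal also drops with host cell toxicity which is not excluded here; 0% = plate median of DMSO wells and 100% = zero luminescence signal; higher percent means less beta-gal luminescence so fewer parasites; stock transfer was 50 nL into about 50 µL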
LANA-H2A inh: blockers of LANA interaction with H2A/H2B – biochemical, FP readout, HTS, primary screen; cell-free LANA-H2A/H2B peptide, fluorescence polarization; inhibition, % (no concentration beside the values); hit rate 0.6% among 320,000; AID 2629, 2010; in the data active = inhibition mostly above about 10%, no sharp cut-off; inactive = mostly below about 6.7%;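 note: stock transfer was 7.5 nL into about 10 µL; 0% = median of vehicle wells and 100% = median of positive control wells; one replicate is shown; the record names a cut of 25% in any replicate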
Target sequence (Q9QR71 whole entry, looked up): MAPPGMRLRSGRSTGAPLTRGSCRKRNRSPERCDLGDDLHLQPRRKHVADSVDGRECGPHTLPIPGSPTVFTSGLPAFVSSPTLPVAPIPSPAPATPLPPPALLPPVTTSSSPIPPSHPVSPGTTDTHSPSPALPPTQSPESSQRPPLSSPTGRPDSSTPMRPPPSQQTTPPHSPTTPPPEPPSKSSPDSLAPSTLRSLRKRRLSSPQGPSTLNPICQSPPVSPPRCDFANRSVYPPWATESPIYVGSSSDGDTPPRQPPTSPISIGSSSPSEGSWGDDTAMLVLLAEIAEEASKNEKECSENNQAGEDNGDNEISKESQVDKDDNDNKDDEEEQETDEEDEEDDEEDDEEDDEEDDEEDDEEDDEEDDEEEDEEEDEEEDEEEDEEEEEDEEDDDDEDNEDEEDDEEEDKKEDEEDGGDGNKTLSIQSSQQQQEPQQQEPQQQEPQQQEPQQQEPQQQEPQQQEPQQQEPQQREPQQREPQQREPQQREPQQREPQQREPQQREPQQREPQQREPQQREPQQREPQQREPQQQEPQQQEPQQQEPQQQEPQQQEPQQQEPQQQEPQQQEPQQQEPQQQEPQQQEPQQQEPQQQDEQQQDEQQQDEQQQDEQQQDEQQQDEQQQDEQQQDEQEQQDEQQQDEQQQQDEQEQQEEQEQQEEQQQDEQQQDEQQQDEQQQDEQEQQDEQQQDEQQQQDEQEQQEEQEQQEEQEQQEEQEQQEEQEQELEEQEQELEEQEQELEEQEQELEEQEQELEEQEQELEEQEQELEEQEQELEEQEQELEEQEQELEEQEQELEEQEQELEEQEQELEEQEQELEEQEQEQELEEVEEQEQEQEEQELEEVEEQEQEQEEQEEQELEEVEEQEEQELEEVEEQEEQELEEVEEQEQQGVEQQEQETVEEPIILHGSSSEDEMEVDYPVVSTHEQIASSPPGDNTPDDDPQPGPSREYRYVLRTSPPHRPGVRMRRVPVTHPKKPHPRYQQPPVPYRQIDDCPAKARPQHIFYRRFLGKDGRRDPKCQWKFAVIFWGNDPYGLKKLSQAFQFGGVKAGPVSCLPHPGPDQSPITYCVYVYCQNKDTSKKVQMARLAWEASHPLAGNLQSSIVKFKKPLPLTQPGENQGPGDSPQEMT
Beta cell apopt: inhibitors of cytokine-induced beta cell apoptosis, primary screen, luminescence | AID 435005, 2010 | INS-1E cytokine-induced death, ATP luminescence, 48 h; percent of positive-control rescue, neutral wells zero | protection from apoptosis, % (concentration not given with the values) | hit rate 0.8% among 300,000;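 active = all replicates at 75% or more, or half of them and the mean; inconclusive = half reach 75% but not the mean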;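 note: 0% = cytokine-treated negative control wells and 100% = positive control rescue; higher means more ATP so stronger rescue from cytokine killing; wells of about 40 µL received 100 nL stock; the first replicate is given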
Starred values were filed as active, the others as inactive; ? = inconclusive; · = not tested or not shown; & = joins results of further samples.

SMILES | Bfl-1 A1 inh | RanGTP-Impb inh | Vif TR-FRET | Calb FLC | MLL AF4-AF9 inh | T cruzi inh | LANA-H2A inh | Beta cell apopt
CSc1ncccc1C(=O)N1CCN(S(=O)(=O)c2ccc3c(c2)OCCO3)CC1 | 0.5 | · | · | · | -2.2 | · | 1.5 | -3
COc1ccc(NC(=O)c2sc3nc(N4CCOCC4)c4c(c3c2N)CC(C)(C)OC4)c(OC)c1 | 0.5 | 1.6 | · | -3 | -2.6 | 3 | 1.8 | 2
Cc1nn(C)c(Oc2ccc(Cl)cc2)c1C(=O)O | -1.1 | 23* | -3% | 8 | · | -11 | 1.8 | 12
COc1ccc(NC(=O)CSc2ccc(F)cc2)cc1S(=O)(=O)N1CCCCC1 | 1.2 | 5.6 | · | -1 | · | 5 | -0.3 | ·
O=C(CSc1nnnn1Cc1ccccc1)c1ccccc1 | 0.2 | 5.6 | 11% | 1 | · | -10 | 1.1 | -15
N#CCC(=O)Nc1ccc(C(=O)NNC(=O)c2ccccc2-n2cccc2)cc1 | 0.4 | · | -6% | · | 1.8 | · | -2.7 | -14
O=Cc1c(Nc2cccc(C(F)(F)F)c2)nc2ccccn2c1=O | -0.2 | 7.7 | 1% | -10 | -1.4 | 1 | -0.7 | ·
COc1ccc(OC)c(C(=O)COC(=O)C(CCSC)NC(=O)COc2ccccc2)c1 (stereo not drawn) | 0.1 | 1.1 | -4% | 12 | -4.1 | -1 | -2.9 | 3
O=C(COC(=O)/C=C/c1ccc(S(=O)(=O)N2CCOCC2)cc1)NCc1ccccc1 | 0.2 | -1.4 | -4% | ? | 1.5 | -2 | -4.2 | 0
Clc1ccc2c(c1)CCc1cccnc1C2=C1CCNCC1 | · | -7.3 | -2%&3% | · | · | 11 | 3.2 | ·
CCOc1cc(/C=N/NC(=O)C(C)Sc2ccccn2)ccc1O (stereo not drawn) | -0.8 | -1.9 | 28% | -11 | · | -14 | -2.9 | -7
O=C(CCCSc1nnc(Nc2ccccc2F)s1)N1CCOCC1 | -1.1 | -1.7 | 28% | 10 | -1.1 | -3 | -7.8 | -12
CC(C)NC(=O)NC(=O)CSc1nncn1C | 0.6 | 0.4 | 5% | 5 | · | -12 | 10 | -4
O=C(Nc1ccncc1)C1CC(=O)N(c2ccc(F)cc2)C1 (stereo not drawn) | 1.9 | -2.9 | 4% | 3 | 2.4 | 5 | 2.9 | -7
CCCN(CC(=O)Nc1ccccc1OC)C(=O)C1CCCC1 | 0.7 | 2.1 | -8% | 9 | -3.4 | -9 | -0.9 | 2
O=C(N/N=C\c1cccnc1)c1ccc(Cl)s1 | 0.7 | -1.1 | · | 18 | 0.3 | 16 | -0.7 | -6
CCn1c(CN2CCOCC2)nnc1SCC(=O)Nc1ccccc1Cl | -0.3 | 2.6 | -10% | 1 | 1.2 | 1 | -2.1 | -1
CCN1C(=O)CC(C(=O)Nc2ccc(F)cc2)SC1=Nc1ccc2c(c1)OCO2 (stereo not drawn) | 0.2 | ? | ? | -23 | · | 23 | 1.6 | -4
CCOC(=O)C(C(=O)OCC)C(C)C#CCN1CCCCC1 (stereo not drawn) | 0.0 | 2.6 | -3% | -1 | · | 7 | 3.1 | -10
CCOC(=O)/C(=C\C=C1/Sc2cc(OCC)c(OCC)cc2N1CC)C(C)=O | 0.4 | -9.1 | -24% | -3 | · | 33 | -24 | 0
CN(C)/C=C1/C=C(c2ccccc2)OC1=O | 0.7 | -1.0 | 10% | -11 | 8.4 | -24 | -2.1 | -4
COc1ccc(C(=O)CSc2nnc(COc3ccccc3)n2Cc2ccco2)cc1 | -1.3 | -0.6 | 0% | 1 | · | -4 | 5.1 | 2
CCN(CC)S(=O)(=O)c1cc(NC(=O)NCCCl)ccc1C | -0.3 | -1.9 | -3% | -4 | 7.8 | -1 | 5.6 | -2
CC1CCCC(NC(=O)c2ccc3c(SCC(=O)O)c4c(nc3c2)CCC4)C1C (stereo not drawn) | 0.4 | 2.4 | -9% | -2 | 1.8 | 2 | -1.6 | -1
CC(C)Cn1c(-c2csc3ccccc23)n[nH]c1=S | 0.3 | 3.1 | -7% | 4 | · | -5 | 0.2 | -4
CC(Sc1ccccc1)C(=O)N/N=C/c1cccnc1 (stereo not drawn) | 0.1 | ? | 0% | -12 | 0.5 | -1 | 2.5 | -2
O=C(c1ccc(Cl)cc1[N+](=O)[O-])N(Cc1ccccc1)Cc1ccccc1 | -1.7 | 0.4 | 8% | 3 | · | 27 | -1.8 | 3
O=C1OCCN1C(=O)[C@H]1[C@H](c2ccc(F)cc2)C(c2ccc(F)cc2)=NN1c1ccc(Br)cc1 | 1.2 | 3.7 | 27% | 18 | · | 25 | -1.2 | -3
COC(=O)c1c(-c2ccc(S(C)(=O)=O)cc2)sc2ccc(OC)cc12 | -1.1 | · | · | · | -8.3 | · | -1.5 | -12
O=C(C1=NN(c2ccccc2)C(=O)CC1)N1CCc2ccccc2C1 | -0.4 | 7.3 | · | · | -1.8 | 5 | 0.3 | -3
Nc1nnc(SCC(=O)OCC(=O)Nc2ccc(Br)cc2F)s1 | -0.7 | · | 5% | 14 | -2.6 | 0 | 2.8 | 1
O=C(O)CNC(=O)c1ccc(Sc2ccccc2)c([N+](=O)[O-])c1 | 1.5 | -2.5 | 12% | 3 | -3.0 | -13 | -5.6 | 2
N#CC1=C(N)Nc2nc3ccccc3n2C1c1ccc(F)cc1 (stereo not drawn) | -0.9 | 5.4 | 18% | 6 | · | -8 | -1.3 | 13
COC(=O)Nc1ccc(S(=O)(=O)N2CCC(C(=O)N(C)C3CCCCC3)CC2)cc1 | -0.4 | 2.7 | 2% | -1 | -11 | 8 | 3.0 | 1
COc1ccc(/C(C)=N/Nc2ccc(F)cc2F)c(O)c1 | 0.5 | 5.4 | -1% | 1 | 0.6 | -10 | -4.5 | 7
COc1cc(C(=O)NCCCN2CCCC2=O)cc(Br)c1OCc1ccccc1 | 0.0 | · | 12% | · | 0.9 | · | 4.2 | -4
COc1ccc(NC(=O)CN(C)C(=O)c2c(-c3ccccc3Cl)noc2C)cc1 | 0.4 | -4.5 | -7% | -1 | 0.9 | 1 | 2.8 | -2
COc1cc2c(cc1OC)CN(C(=O)c1ccc(Cl)c(S(=O)(=O)N3CCCC3)c1)CC2 | -1.7 | · | · | · | 5.0 | · | -0.5 | 0
O=C1CC(N2CCN(Cc3ccccc3)CC2)C(=O)N1c1ccc2c(c1)OCCO2 (stereo not drawn) | 0.5 | -4.6 | 17% | 4 | · | -7 | 2.2 | 2
COc1ccccc1-n1c(-c2ccc(NS(C)(=O)=O)cc2)n[nH]c1=S | 0.4 | 1.2 | 8% | 7 | · | 15 | -1.7 | -4
CCOC(OCC)c1cc2ccccc2cn1 | -3.1 | · | · | · | -5.4 | · | 10.0 | -3
CC1Cc2ccccc2N1S(=O)(=O)c1cccc(C(=O)NCCCO)c1 (stereo not drawn) | 0.6 | 1.1 | -3% | 0 | · | 1 | 0.1 | -1
Nc1cc(N2CCCCC2)c([N+](=O)[O-])cc1Cl | 1.6 | -1.1 | 10% | -6 | -15 | 5 | · | 1
O=C(OCC(=O)N1CCCc2ccccc21)c1cc(Cl)ccc1O | 0.9 | 7.5 | -32% | 2 | -1.4 | -9 | -3.5 | -5
Cc1ccc(S(=O)(=O)N2CCN(C(=O)COc3ccc(Br)cc3)CC2)cc1 | 0.3 | · | -14% | · | 9.7 | · | 1.5 | 2
Cc1ccc(-c2nc(N3CCOCC3)sc2C(=O)N2CCCCC2)cc1 | 0.9 | -0.4 | · | -8 | 0.8 | -7 | 2.2 | -1
CCC(C)C(=O)Nc1ccccc1N1CCN(c2ccc(F)cc2)CC1 (stereo not drawn) | 0.2 | -1.4 | · | 6 | 4.2 | 10 | 9.6 | ·
CCC1CN(C(=O)NCc2ccc(F)cc2)c2cc(C)ccc2O1 (stereo not drawn) | 1.3 | -2.5 | -2% | 0 | 1.5 | 1 | -1.0 | 1
Cc1c(Cl)cccc1NC(=O)Nc1cnccn1 | 0.3 | 6.1 | -1% | 8 | -7.2 | 8 | -3.6 | 4
O=C(NCc1ccco1)c1cccc(F)c1 | 0.6 | 0.5 | 10% | 15 | · | 1 | 2.1 | -4
CC(=O)Nc1ccc(/C=C(\C#N)C(=O)NC2CCCCC2C)cc1 (stereo not drawn) | 0.9 | -4.9 | -8% | 0 | 1.9 | -11 | -3.2 | -9
COCCNC(=O)COc1coc(CN2CCN(Cc3ccccc3)CC2)cc1=O | 1.6 | -1.1 | · | -4 | -22 | -8 | -3.6 | ·
COc1ccc(Cl)cc1NC(=O)CN(C)CC(=O)N1CC(=O)Nc2ccccc21 | 0.7 | · | · | · | -2.7 | · | -0.6 | -2
C[C@@H](NC(=O)c1nc[nH]c1C(=O)NC1CCN(C(=O)OC(C)(C)C)CC1)c1ccccc1 | -0.5 | · | · | · | 2.2 | · | 0.4 | -1
C[C@]12CC[C@@H]3c4ccc(O)cc4CC[C@H]3[C@@H]1C[C@@H](O)[C@@H]2O[C@@H]1O[C@H](C(=O)O)[C@@H](O)[C@H](O)[C@H]1O | 0.0 | 2.0 | 13% | -5 | 0.3 | 0 | 1.7 | 3
CCOC(=O)c1ccc(NS(=O)(=O)c2cn(C)cn2)cc1 | 0.4 | 8.3 | · | -4 | 0.9 | 2 | 3.2 | -10
Cc1c(O)cc2c(c1O)C(=O)CC(c1ccccc1)O2 (stereo not drawn) | 0.3 | -0.6 | · | 9 | 1.3 | 4 | 0.9 | 13
Cc1ccc2c(c1)/C(=C/c1ccccc1F)C(=O)N2 | 0.4 | 0.8 | 3% | 7 | -0.8 | 10 | 4.9 | 6
COc1ccc(C(=O)NNS(=O)(=O)c2ccccc2)cc1 | 0.1 | 6.3 | 5% | -14 | -0.5 | -14 | · | 1
CCn1c(CNc2ccc(F)cc2)nnc1SCC(=O)Nc1ccc(OC)cc1 | 0.1 | -6.2 | -1% | 1 | · | -14 | -1.2 | 8
CCN1C(=O)[C@@H]2[C@@H](c3ccc(-c4ccc5c(c4)OCO5)cc3)N3CCCC[C@@]3(C(=O)OC)[C@@H]2C1=O | -0.7 | 6.9 | · | 6 | · | 42 | 1.6 | 1
COc1cc(/C=N/NC(=S)Nc2cccc(C(=O)O)c2)cc(OC)c1OC | -1.4 | 0.9 | · | 1 | -4.6 | -5 | -0.4 | ·
Cn1c(C(C#N)C(=O)c2sc3ccccc3c2Cl)nc2ccccc21 (stereo not drawn) | -1.0 | ? | 13% | -4 | · | 2 | -1.7 | 18
